NPYLR7 agonist = activates Aedes aegypti NPYLR7 receptor; HEK293T NPYLR7/Galpha15, GCaMP6s calcium fluorescence; 270,000 tested, 0.15% active; activation, % at 10 µM; in the data active = activation above about 40%;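 note: 0% = vehicle and 100% = reference agonist at the receptor; some compounds past the cut are filed as inactive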
NPYLR7 agonist max-min = second read-out of NPYLR7 agonist, no call of its own (marks repeat the call); activation, %; measured here: Max-Min RFU normalised activation; some inactives read as strong as hits;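 span of the calcium signal over five minutes; 0% = vehicle and 100% = native peptide agonist; compound fluorescence can raise it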
The depositor's hits bear a star; & = joins results of further samples. These rows are one share of the data. The share of hits here may be higher or lower than overall.

entry	SMILES	NPYLR7 agonist	NPYLR7 agonist max-min
1	CC1C/C(=C\c2cccnc2)C(=O)/C(=C/c2cccnc2)C1 (stereo unspecified)	4	1
2	O=C(Cn1cccc1)N1CCCC1	-4	-5
3	O=C(Nc1ccc(-c2cn3cccnc3n2)cc1)c1ccc(C(F)(F)F)cc1	8	10
4	O=C(NCC(O)c1ccc(F)cc1F)c1ccccc1 (stereo unspecified)	1	1
5	CNc1ccc2ncc(-c3ccc(OC)c(OC)c3)n2n1	3	3
6	O=C(O)C1CN(c2ncc(F)c(N3CCCC3)n2)CCN1 (stereo unspecified)	2	1
7	CCCNC(=O)CN1CCN(Cn2[nH]c(-c3ccccc3)nc2=S)CC1	9	5
8	COCCN(CC(=O)Nc1nc(CC(=O)NCCc2ccccn2)cs1)C(=O)c1ccc(Cl)cc1Cl	23	21
9	O=C(NCC1CCCCC1)c1ccc2sc([C@H]3C[C@H](O)[C@@H](CO)O3)nc2c1	2	-1
10	Cc1cc(C(=O)N=Nc2c(O)[nH]c3ccccc23)n[nH]1	-1&3	-8&9
11	CN1CCN(C(=O)C2COC3(CCCCC3)N2C(=O)c2ccccc2C(F)(F)F)CC1 (stereo unspecified)	20	30
12	O=C(NCCN1CCOCC1)c1coc(CN(Cc2ccccc2)Cc2ccc(Cl)cc2)n1	20	20
13	Cc1sc2ncn(CC(=O)c3cc(C)n(CC(F)(F)F)c3C)c(=O)c2c1C	8	8
14	Cc1ccc(NC(=O)c2ccc(-n3nc(-c4cccc(C)c4)cc3N)cc2)cc1	-5	-7
15	N#CC(=Cc1ccc2c(c1)OCO2)c1nc2ccccc2[nH]1	0	-1
16	COc1cccc2ccc(N3CC[C@@H](N4CCOCC4)[C@H](O)C3)nc12	0	-5
17	O=C(CCNC(=O)c1ccsc1)OCc1ccc(C(F)(F)F)cc1	0	-2
18	CCc1ccccc1N1CC(C(=O)NCc2cccc(NS(C)(=O)=O)c2)CC1=O (stereo unspecified)	1	0
19	CN(Cc1ccc2c(c1)OCCO2)C(=O)C1CCN(C(=O)c2cccc3ccccc23)CC1	-10	-11
20	Cc1nc(C)c(-c2ccc(SCC(=O)c3ccc([N+](=O)[O-])cc3)nn2)s1	-1	-7

The last 2 compounds of the part above open the next one:
entry	SMILES	NPYLR7 agonist	NPYLR7 agonist max-min
19	CN(Cc1ccc2c(c1)OCCO2)C(=O)C1CCN(C(=O)c2cccc3ccccc23)CC1	-10	-11
20	Cc1nc(C)c(-c2ccc(SCC(=O)c3ccc([N+](=O)[O-])cc3)nn2)s1	-1	-7
21	CCOP(=O)(CNC(=O)C1(C)CCc2c(C)c(O)c(C)c(C)c2O1)OCC (stereo unspecified)	-8	-14
22	COc1cc(CNC(=O)C23CC4CC(CC(Cl)(C4)C2)C3)ccn1	7	4
23	COc1ccc(-c2cc(CNC(=O)C3CC3)no2)cc1OC	-2	-3
24	O=C(CSc1ncccc1C(=O)N1CCC(Cc2ccccc2)CC1)Nc1ccc(Cl)cc1	-4	0
25	O=S(=O)(c1cccnc1N1CCCC1c1cccs1)N1CCCCC1 (stereo unspecified)	0	36
26	O=C1NC(=S)SC1=Cc1ccc(OCc2ccccc2)cc1	-2	-3
27	CCOCCCC(=O)NC(C)(C#N)C1CCCCC1 (stereo unspecified)	3	-2
28	CC(C)CN1CC(C(=O)NCc2nc(-c3ccccc3)n[nH]2)CC1=O (stereo unspecified)	0	-6
29	Cc1cc([N+](=O)[O-])cc(S(=O)(=O)N(Cc2ccc(F)cc2)C2CC2)c1C	9	6
30	C#CCn1c(=NC(=O)c2cc(C)no2)sc2cc(SC)ccc21	11	14
31	Cc1ccn2c(=O)cc(CS(=O)(=O)CCC(=O)Nc3cc(C)on3)nc2c1	-3	-7
32	COC(=O)CCC(=O)N1CCC(n2c(=O)oc3cc(C)ccc32)CC1	4	1
33	Clc1ccc(C(OCCCN2CCN(Cc3cccnc3)CC2)c2ccc(Cl)cc2)cc1	17	23
34	O=C(CCc1ccccc1)N1CC(c2cccnc2)C1	3	2
35	CSc1nc(C(=O)N2CCCCC2c2nc3ccc(F)cc3[nH]2)cs1 (stereo unspecified)	29	16
36	COc1cccc(NC(=O)C2(C)CCN2CC(C)C)c1OC (stereo unspecified)	1	-1
37	Cc1cc(CNc2nc3ccccc3nc2N2CC(C)OC(C)C2)no1 (stereo unspecified)	-2	-6
38	Cc1c(C(=O)NCC(C)C)cc(-c2ccccc2)n1-c1ccccc1Cl	27	27
39	CCN(Cc1cc(Br)ccc1O)C(=O)C1(c2ccc(F)cc2)CCOCC1	8	5
40	Cc1cc(C)c2oc(=O)n(C3CCN(C(=O)c4ccco4)CC3)c2c1	-5	-5

Full records, looked up by structure.
C#CCn1c(=NC(=O)c2cc(C)no2)sc2cc(SC)ccc21 is entered as NPYLR7 agonist = 11; NPYLR7 agonist max-min = 14
Cc1c(C(=O)NCC(C)C)cc(-c2ccccc2)n1-c1ccccc1Cl is entered as NPYLR7 agonist = 27; NPYLR7 agonist max-min = 27

Other structures:
entry	SMILES	NPYLR7 agonist	NPYLR7 agonist max-min
41	CC(C)(O)C#Cc1ccc(C(=O)N2CCN(C(=O)c3ccco3)CC2)o1	-3	-5
42	Cc1nn(C)cc1CN1CCCC(CNC(=O)c2cc3ccccc3[nH]2)C1 (stereo unspecified)	5	0
43	O=C(Nc1cc(F)ccc1F)N1CCc2ccccc2C1c1ccccc1Cl (stereo unspecified)	22	12
44	CCN1CCN(C(c2cccc(Cl)c2)C2Sc3nc(-c4ccco4)nn3C2=O)CC1 (stereo unspecified)	-6	-8
45	COCCC1CCCCN1Cc1cn[nH]c1-c1ccc2cc(OC)ccc2c1 (stereo unspecified)	5	2
46	Cc1cc(C)c(C2=CSC3=NS(=O)(=O)CCN23)c(C)c1	2	1
47	C=CCN=c1scc(-c2ccc(OC(F)F)cc2)n1N=Cc1ccc2c(c1)OCO2	5	2
48	CN1C[C@@H]2CN(CCC#N)C(=O)CCN(C(=O)c3ccno3)[C@H]2c2ccccc21	29	29
49	Cc1ccc(C)c(CN(CCN2CCOCC2)Cc2nc(C(=O)NC3CC3)co2)c1	18	5
50	Cc1cc(C)n(CC(=O)N(CCN2CCCCC2)CC2CCCN(C3CCCC3)C2)n1 (stereo unspecified)	2	2
51	CCOC(=O)c1ccc(N2C(=O)c3cccc4c([N+](=O)[O-])ccc(c34)C2=O)cc1	0	-4
52	O=C(NC1CC1)C1CCN(C2CCN(C(=O)C3COc4ccccc4C3)CC2)CC1 (stereo unspecified)	0	7
53	CC(=O)Nc1cccc(NC(=O)CN(C)CCN2CCCC2=O)c1	8	7
54	O=C(NC(c1ccc(F)cc1)c1cnccn1)C1CCN(C/C=C/c2ccccc2)CC1 (stereo unspecified)	17	6
55	CCc1nc2ccc(C(=O)NCc3ccccc3OC)cn2c1N(CC)CCN(C)C	-6	-8
56	O=C(NC(C(=O)N/N=C\c1ccc2c(c1)OCO2)c1n[nH]c(=O)c2ccccc12)c1ccccc1 (stereo unspecified)	-14	-18
57	CS(=O)(=O)c1ccc(C(NC(=O)c2cccnc2Oc2ccccc2)c2ccc3c(c2)CCO3)cc1 (stereo unspecified)	12	3
58	CCc1ccc(CN(C)C(=O)NCCC2CCCC2)cc1	-3	-2
59	COCCNc1oc2c(c1-c1cccc(OC)c1)c(=O)oc1ccccc12	-8	-10
60	NC(=O)c1ccc(CN2CCc3ccccc32)cc1	-1	-1

Copied from the list.
Entry of compound 46 in NPYLR7 agonist max-min: 1
Entry of compound 51 in NPYLR7 agonist max-min: -4

Filtered by structure, the entries above containing a thiophene ring, fused or not
entry	SMILES	NPYLR7 agonist	NPYLR7 agonist max-min
13	Cc1sc2ncn(CC(=O)c3cc(C)n(CC(F)(F)F)c3C)c(=O)c2c1C	8	8
17	O=C(CCNC(=O)c1ccsc1)OCc1ccc(C(F)(F)F)cc1	0	-2
25	O=S(=O)(c1cccnc1N1CCCC1c1cccs1)N1CCCCC1 (stereo unspecified)	0	36

Further records follow.
entry	SMILES	NPYLR7 agonist	NPYLR7 agonist max-min
61	COC(C(=O)N1CCC(n2nc(C(C)C)cc2C(C)C)CC1)c1ccccc1 (stereo unspecified)	3	5
62	CCCCC(=O)Nc1c(C)nc2cc(C)ccn2c1=O	4	2
63	Nc1ccc(-c2ccc(C(=O)N3CCC(CN4CCCC4=O)CC3)cn2)cn1	3	-2
64	COC(=O)Oc1cc2oc(=O)sc2cc1Br	4	1
65	COc1ccc(-n2ncc(C(=O)N3CCN(C(C)=O)CC3)c2C)cc1	11	24
66	Cc1cc(C)cc(OCC(=O)N2N=C(c3ccccc3)CC2(O)C(F)(F)F)c1 (stereo unspecified)	0	0
67	Cc1c(C(=O)NCCC#N)sc(=O)n1Cc1ccccc1	6	0
68	O=C(NCC1CCCO1)c1cc(N2CCN(c3cccc(C(F)(F)F)c3)CC2)nc2ccccc12 (stereo unspecified)	22	36
69	COc1cc(-c2c(C#N)c(N)nc3c2c(C)nn3-c2ccc(C)cc2)cc(OC)c1OC	6	2
70	COc1cc(C=NN=c2sc3ccccc3n2C)cc(OC)c1O	3	2
71	O=C(COC(=O)c1cc(Cl)c[nH]1)Nc1ccccc1S(=O)(=O)C(F)F	5	3
72	CSc1nc(C(N)=O)c(N)n1C	4	2
73	COCC(=O)NC1CCN(c2ccccc2C(=O)N2CCOCC2)CC1	23	19
74	CC(C)NC(=O)NCc1ccc(C(=O)N(C)Cc2cccs2)cc1	16	9
75	CCCN(Cc1nccn1C)C(=O)C12CNCC1CNC2 (stereo unspecified)	17	14
76	Cc1nc(=S)c(C#N)c(-c2ccccc2)[nH]1	10	4
77	CCOC(=O)c1cnc(-c2ccc(C(F)(F)F)cc2)nc1NCc1sccc1C	7	2
78	Cn1c(=O)[nH]c(=O)c2c1nc1n2CCCN1Cc1ccccc1	8	7
79	O=C(Nc1ccc2c(c1)OCO2)C1CCN(C(=O)c2cc3c(s2)CCCCCC3)CC1	7	6
80	CC(Cc1cnccn1)NS(=O)(=O)NCc1ccccc1 (stereo unspecified)	1	-1

Continuation:
entry	SMILES	NPYLR7 agonist	NPYLR7 agonist max-min
81	CCCOc1cc(CC#N)c(OCCC)cc1CC#N	-1	-1
82	CCC(=O)N1CCc2cc(C(=O)N(C)Cc3ccc(C(F)(F)F)cc3)ccc21	5	5
83	O=C(COCC(F)(F)C(F)F)N1CCCC(Nc2ccc(F)cc2)C1 (stereo unspecified)	0	-3
84	COc1ccc(-c2nnc(SCc3cc(F)cc(F)c3)n2-c2ccccc2)cc1	16	19
85	CCC(Oc1ccc2c(c1)CCCC2)C(=O)NCCc1cn[nH]c1 (stereo unspecified)	4	-5
86	CN(C)c1cccc(Nc2nccc3c2cc(-c2ccsc2)n3C)c1	-5	-10
87	C#CCn1c(O)c(N=NC(=O)CNC(=O)COc2ccccc2)c2ccccc21	-8	-12
88	CC(CC(=O)Nc1c(-c2ccc(C(F)(F)F)cc2)nc2ccccn12)CC(C)(C)C (stereo unspecified)	0	6
89	COc1ccc(C(O)CNC(=O)c2cnccn2)cc1 (stereo unspecified)	2	0
90	COC(=O)CN1CCN(CC(=O)Nc2ccc([N+](=O)[O-])cc2)CC1	16	15
91	O=C(OCc1nc(C(=O)NCCc2cccc(F)c2)cs1)c1ccccc1	-8	-12
92	CCOC(=O)C1CCCCN1CC(=O)N1N=C(c2ccccc2F)CC1c1ccc(Cl)cc1 (stereo unspecified)	17	14
93	CC1(C(=O)NS(=O)(=O)c2ccc(Cl)s2)CCN1C(=O)C/C=C/c1ccccc1 (stereo unspecified)	-2	-3
94	Brc1ccc(Nc2ncnc3nc[nH]c23)cc1	6	14
95	CCC(=O)N1CCCc2cc(NS(=O)(=O)CC)ccc21	4	1
96	CCCn1cnnc1CNC1CCCC1	8	-1
97	COc1ccc(OC)c(C=CC(=O)Nc2ccc3c(c2)OCO3)c1	-6	-7
98	Cc1ccc(CSc2nnc(-c3ccc4c(c3)OCO4)o2)cc1	-1	-4
99	Cc1ncc(C[n+]2cccc3ccccc32)c(N)n1	-2	-2
100	Cc1cccc(NC(=O)N(C)Cc2cc(C)on2)c1	2	1

New compounds follow.
entry	SMILES	NPYLR7 agonist	NPYLR7 agonist max-min
101	C=CCn1cc(/C=C(/C#N)c2ccc(F)cc2)c2ccccc21	3	0
102	Cc1cccc(CC2SC(=Nc3ccc(Cl)cc3)NC2=O)c1 (stereo unspecified)	-15	-21
103	COc1cc2c(cc1OC)C(c1ccccc1)N(C(=O)Nc1cc(F)ccc1F)CC2 (stereo unspecified)	12	3
104	CC(c1cccs1)N(C)C(=O)c1ccc(OC2CCN(Cc3ccccn3)CC2)cc1 (stereo unspecified)	-8	-11
105	C=C(C)COc1ccccc1-n1c(C)cn2c3c(=O)n(C)c(=O)n(C)c3nc12	-3	18
106	COc1ccc(-c2c[nH]n3c(=O)c(Cc4ccccc4)c(C)nc23)cc1	-13	-20
107	COc1cc(-c2nc3ccccn3c2NC(C)(C)CC(C)(C)C)ccc1OC(=O)C1CC1	11	10
108	Cc1cccc(CSC2=NS(=O)(=O)c3ccccc3N2)c1	8	2
109	CC(C)(C)C(=O)COC(=O)CCC(=O)c1cccs1	2	-1
110	CC(C)(C)n1nc(C(=O)Nc2cccc3c2CCCC3)cc1C1CC1	0	-2
111	Cc1nn(C)c(C)c1CN(C(=O)[C@@H]1C[C@H]1c1ccccc1)C1CC1	-2	-3
